# NPYLR7 ag: mosquito NPYLR7 agonism. AID 1259423. 0.15% of 270,000 active. activation, % at 10 µM. HEK293T NPYLR7/Galpha15, GCaMP6s calcium fluorescence; in the data active = activation above about 40%;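 also: 0% = vehicle and 100% = reference agonist at the receptor; some compounds past the cut are filed as inactive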
# NPYLR7 ag max-min: also measured in NPYLR7 ag; calls as there; activation, %; measured here: Max-Min RFU normalised activation; some inactives read as strong as hits;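 span of the calcium signal over five minutes; 0% = vehicle and 100% = native peptide agonist; compound fluorescence can raise it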
# Numbers without * were called inactive; & = joins results of further samples. The list is partial, so the mix of outcomes need not match the whole.
1: Cc1nc(C(F)(F)F)ccc1C(=O)N1CCC1(C)C(=O)NS(=O)(=O)c1ccc(C(C)(C)C)cc1 (centres undefined)
2: CCCS(=O)(=O)N1C[C@H]2OC(=O)N(CCc3cccc(Cl)c3)[C@H]2C1
3: O=C(CCl)NC(c1ccccc1)c1cccs1 (centres undefined)
4: O=C(NCCn1ncc2c(N3CCN(c4ccccc4)CC3)ncnc21)C1COc2ccccc2O1 (centres undefined)
5: CN(C)c1ccc(/C=C2N=C(/C=C/c3ccc(Cl)cc3)OC/2=O)cc1
6: c1ccc2c(NC3CCCCC3)nc(CN3CCCC3c3nccs3)nc2c1 (centres undefined)
screen / no.	1	2	3	4	5	6
NPYLR7 ag	3	-2	-7	2	-3	18
NPYLR7 ag max-min	1	-3	-8	0	-6	5

7: Cc1cccn2c(CNCc3cnn(-c4cccc(F)c4)c3)c(C(=O)N3CCCCC3)nc12
8: O=c1c2c3c(sc2ncn1N=Cc1cccnc1)CCC3
9: CN(Cc1nc2ccccc2[nH]1)C(=O)C1CCC(=O)N(CCCc2ccccc2)C1 (centres undefined)
10: O=[N+]([O-])c1ccccc1S(=O)(=O)NCC(c1cccc2ccccc12)N1CCOCC1 (centres undefined)
11: CCCc1nc(C(C)(C)O)c(C(=O)OCc2oc(=O)oc2C)n1Cc1ccc(-c2ccccc2-c2nn[nH]n2)cc1
12: O=C(Cc1ccncc1)N1CC[C@@H](c2ccc3ccccc3c2)[C@H](O)C1
screen / no.	7	8	9	10	11	12
NPYLR7 ag	11	-2	-3	0	-9	5
NPYLR7 ag max-min	1	3	-5	5	-12	4

13: CC(C)(C)OC(=O)NNC(=O)CNC(=O)c1ccc(Br)o1
14: COc1ccc(CN2CCNC(=O)C2CC(=O)NC2CCC2)c(OC)c1 (centres undefined)
15: COc1ccc2oc(=O)c(-c3csc(Nc4ccc(F)cc4)n3)cc2c1
16: O=C(CNC(=O)C1CC(c2ccc(Cl)cc2)=NO1)NCc1cccnc1 (centres undefined)
17: Nc1ccnc(-c2cccc3cccnc23)c1
18: Cc1cc(C)nc(N(C#N)CN2C(=O)c3ccccc3C2=O)n1
screen / no.	13	14	15	16	17	18
NPYLR7 ag	0	1	7	1	-7	-4
NPYLR7 ag max-min	26	0	9	11	-15	-4

19: CC1(C(=O)NS(=O)(=O)c2cccc(OC(F)F)c2)CCN1C(=O)C1CCCCC1 (centres undefined)
20: CC1CN(C(C(=O)Nc2cnc3ccccc3c2)C(C)C)CC(C)O1 (centres undefined)
21: CC1=C(C(N)=O)N2C(=O)[C@@H](NC(=O)Cc3ccccc3)C2SC1 (some centres undefined)
22: O=C(NCc1ccc2c(c1)OCO2)c1ccccc1NS(=O)(=O)c1cccc(OC(F)(F)F)c1
23: Cc1ccc(Cl)cc1S(=O)(=O)NCC(c1cccn1C)N(C)C (centres undefined)
24: Cc1cc2cc(C(=O)NCCSc3nccn3C)ccc2o1
screen / no.	19	20	21	22	23	24
NPYLR7 ag	6	1	2	1	6	-19
NPYLR7 ag max-min	3	0	2	13	5	-20

25: O=C(CCc1cccnc1)N1CCOC(COc2ccccc2)C1 (centres undefined)
26: Cc1[nH]n(-c2nc(-c3ccccc3)cs2)c(=O)c1N=Nc1ccc([N+](=O)[O-])cc1Br
27: Cc1cn2c3c(=O)n(CCc4ccccc4)c(=O)n(C)c3nc2n1CCCN1CCOCC1
28: Cc1nc(N)nc(C)c1CC(=O)Nc1cnc2n1CCCC2
29: Cc1cccc(NC(=O)Cn2ncn3nc4c(c3c2=O)CCCC4)c1
30: O=C(CN1CCN(c2ncnc3c2CN(Cc2ccccc2)CC3)CC1)Nc1cccc([N+](=O)[O-])c1
screen / no.	25	26	27	28	29	30
NPYLR7 ag	8	-6	4	4	-4	-6
NPYLR7 ag max-min	10	-9	0	-5	-6	-5

31: CCOC(=O)CCC(=O)Nc1ccc(F)c([N+](=O)[O-])c1
32: COc1cccc(CN2C(=O)C3(SCCN3C(=O)c3ccco3)c3cc(Cl)ccc32)c1 (centres undefined)
33: S=c1nc(-c2cc(Cl)cc(Cl)c2)[nH][nH]1
34: Cc1cc(C)n2c(Nc3c(C)cccc3C)c(-c3ccc(C(C)(C)C)cc3)nc2c1
35: CCc1ccccc1N1CCN(C(=O)c2ccc(F)cc2)C(C)C1=O (centres undefined)
36: Cc1cc(NC(=O)Cc2cc(-c3cc4ccccc4o3)on2)no1
screen / no.	31	32	33	34	35	36
NPYLR7 ag	6	5	-1	-7	-1	10
NPYLR7 ag max-min	0	10	-8	-7	-1	13

37: CCSC1CCCC(NC(=O)N(C)C(C)c2ccncc2)C1 (centres undefined)
38: O=C(NCc1cnn2ccccc12)c1ccccc1N1CCS(=O)(=O)CC1
39: CCCCOc1ccc(NC(=O)Nc2ccccc2N2CCNC(=O)C2)cc1
40: COc1ccc(-n2ncc(Oc3ccc4c(c3)CCC4)c(Nc3ccc(C(=O)O)cc3)c2=O)cc1
41: Cc1ccc(CC2CCCN(c3cn[nH]c(=O)c3Cl)C2)cc1 (centres undefined)
42: COc1cc(-c2cc(NCCN(C)C)nc3[nH]ccc23)ccc1O
screen / no.	37	38	39	40	41	42
NPYLR7 ag	-1	11	-1	14	-21	1
NPYLR7 ag max-min	-1	8	0	9	-22	-3

43: COc1ccc(CNC(=O)c2cnn3c2NC(c2ccc(F)cc2)CC3C(F)(F)F)cc1 (centres undefined)
44: CNC(=O)COc1coc(CN2CCN(c3ccccc3F)CC2)cc1=O
45: O=C(NC(c1ccccc1)c1ccccc1)C1COc2ccccc2O1 (centres undefined)
46: Cc1nc(C)c(Cc2cccc(C(F)(F)F)c2)c(N2CCN(C(=O)c3ccc(Cl)cc3)CC2)n1
47: COc1cc(-c2nc3ccc(Br)cn3c2NC2CCCCC2)ccc1OC(=O)c1ccc(C(C)(C)C)cc1
48: O=C(CCc1ccco1)N1CCOC(c2ccccc2)C1 (centres undefined)
screen / no.	43	44	45	46	47	48
NPYLR7 ag	-1	2	13	1	7	18
NPYLR7 ag max-min	-4	6	11	9	12	21

49: CCOc1ccc(NC(=O)N(Cc2ccc(OS(=O)(=O)CC)cc2)C(C)CC)cc1 (centres undefined)
50: COC(=O)CC1=C(C(=O)OC)C(c2cccc([N+](=O)[O-])c2)C(C#N)C(=N)O1 (centres undefined)
51: O=C(CC1CSc2nc3c(c(=O)n21)CCC3)Nc1ccc(Oc2ccccc2)cc1 (centres undefined)
52: CC(C)c1cc(N2CCOCC2)n2ncc(-c3ccccc3)c2n1
53: OCC(O)C1OC(Nc2ccc(Cl)cc2)C(O)C1O (centres undefined)
54: O=c1c(Cl)c(N2CCCCC2)cnn1-c1nc2ccccc2[nH]1
screen / no.	49	50	51	52	53	54
NPYLR7 ag	-1	-7	0	1	-2	1
NPYLR7 ag max-min	-8	-9	0	-1	-4	-1

55: C=CCN(Cc1csc(COc2ccc(C)c(C)c2)n1)C(=O)c1cccc(Br)c1
56: Cc1ccc2c(c1)c1c3n2CCN(CCC#N)C3CCC1 (centres undefined)
57: Fc1cccc(Cl)c1-c1nccn1CCc1ccncc1
58: CN(Cc1ccc2nsnc2c1)Cc1nc(Cc2ccccc2Cl)no1
59: CC1C(=NO)C(C)C(c2ccccc2)NC1c1ccccc1 (centres undefined)
60: CCN(CC)C(=O)c1nc(CCc2ccccc2)nn1-c1ccccc1
screen / no.	55	56	57	58	59	60
NPYLR7 ag	-7	5	5	5&11	-22	-3
NPYLR7 ag max-min	0	3	0	-2&6	-27	-10

61: CSc1ccccc1C(=O)Nc1ncn[nH]1
62: Cc1ccc2nc(N(CCN(C)C)C(=O)c3cccc(S(C)(=O)=O)c3)sc2c1
63: COc1cc(-c2nc3ccccn3c2NC(C)(C)CC(C)(C)C)ccc1OS(=O)(=O)/C=C/c1ccccc1
64: CC(C)Cc1cc(C(=O)N(CCC#N)c2ccc(F)cc2)n[nH]1
65: CC1(C(=O)Nc2cccc3cccnc23)CCN1C(=O)C1CCCCC1 (centres undefined)
66: O=c1[nH]c(Cn2cc(C(F)(F)F)cc(Cl)c2=O)nc2ccsc12
screen / no.	61	62	63	64	65	66
NPYLR7 ag	16	-4	-3	1	2	2
NPYLR7 ag max-min	7	-5	5	3	-1	5

67: Cc1c(C#N)c(NC(=O)CN2CCOC(C)C2)n(C2CCCC2)c1C (centres undefined)
68: CCN(Cc1nc2cc(Cl)ccc2c(=O)[nH]1)C(=O)c1sccc1C
69: NC(=O)C(NCCOc1ccc(Cl)cc1)c1ccccc1 (centres undefined)
70: CCOC(=O)c1nn(-c2ccccc2)c(=O)cc1OCC(=O)NCc1ccccc1OC
71: Cc1cc(Cl)ccc1Nc1nc(Nc2ccc(F)cc2)nc2nccnc12
72: Cc1ccc(NC(=O)CSc2nc(N)c(NC(=O)c3ccc(C(F)(F)F)cc3)c(=O)[nH]2)c(C)c1
screen / no.	67	68	69	70	71	72
NPYLR7 ag	-3	-3	-2	6	-1	11
NPYLR7 ag max-min	-4	-3	-3	1	7	10

73: Cc1cc(-c2cc3c(n(Cc4cccnc4)c2=O)CCN(C(=O)c2snnc2C)C3)ccc1F
74: C=CCOC1C[C@](OCc2cccc(F)c2)(C(=O)NCCN(C)C)C[C@@H](O)[C@H]1O (some centres undefined)
75: O=C(CNC(=O)C1CCCCC1)NCCO
76: CC1CN(c2ccc(CNC(=O)C(C)NC(=O)c3ccoc3)cn2)CC(C)O1 (centres undefined)
77: CCN(CC)S(=O)(=O)c1ccc(Cl)c(C(=O)Nc2nccs2)c1
78: CN(CCC1CCOCC1)C(=O)CC1C(=O)NCCN1Cc1cccs1 (centres undefined)
screen / no.	73	74	75	76	77	78
NPYLR7 ag	-16	5	2	7	-7	11
NPYLR7 ag max-min	-17	7	-1	6	-15	7

79: Cc1ccc(-n2nnc(C(=O)OCc3nc(-c4ccccc4C)oc3C)c2C)cc1
80: CCCC(=O)N(CC(=O)N(CCc1c[nH]c2ccccc12)Cc1ccc(C)cc1)C1CC1
81: CCCCCCn1c(SCC(=O)NC2CCN(CC)CC2)nnc1-c1ccc(Cl)cc1
82: CC(=O)NCCc1cn(Cc2nc(-c3cc(F)cc(F)c3)oc2C)cn1
83: Cc1ccc(Sc2c(C)nn(C(=O)c3ccco3)c2C)cc1
84: CC(NC(=O)c1cccs1)C(c1cccs1)N1CCN(C)CC1 (centres undefined)
screen / no.	79	80	81	82	83	84
NPYLR7 ag	13	-1	-1	14	1	0
NPYLR7 ag max-min	12	8	-3	6	7	-1

85: Cc1nc(C(=O)N2CCC(=O)N(Cc3ccc(F)cc3)C(C(C)C)C2)c(C)o1 (centres undefined)
86: COCCCN1CCc2nc(SCC(=O)Nc3ccc(C)c(Cl)c3)[nH]c(=O)c2C1
87: Cc1cc(NCc2cc(-c3ccco3)on2)nc(-c2cccnc2)n1
88: O=C(Nc1cccc(-c2nc3cc(Cl)ccc3o2)c1)c1ccccc1Cl
89: CCN(CC)S(=O)(=O)c1cc(C(=O)Nc2ccccc2OC)ccc1C
90: COCCCN(CC(=O)N(CCc1c[nH]c2ccccc12)Cc1ccc(C)cc1)C(=O)Cc1ccccc1
91: CCOC(=O)C1Sc2ccccc2Oc2ccccc21 (centres undefined)
92: CCOC(=O)c1cn2cccc(OC(=O)c3ccccc3)c2n1
screen / no.	85	86	87	88	89	90	91	92
NPYLR7 ag	6	2	13	0	-8	14	-1	6
NPYLR7 ag max-min	-3	1	-5	-7	-12	22	-3	7
